ClpP mod: qHTS Assay for Activators of ClpP | purified B. subtilis ClpP, FRET peptide cleavage, 20 min | 1.9% of 340,000 active | Potency, µM (doses to about 57.5 µM), for the others: at the top dose activity change, negative = active; active = well fitted falling curve with a large enough effect; inconclusive = small, poorly fitted or top-dose-only effect; inactive = no such curve, though single readings can be large or run the other way; further: potency means the concentration at half of the fitted maximal effect; the source files actives as falling curves though it sought activators and does not explain the sign; nearly all actives have a fitted effect of over 65% in size; many hits overshoot -100%
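Purified B. subtilis ClpP, 10 microg/mL final in Tris/HCl pH8 with KCl, BSA, glycerol and Tween-20, cleaved an Abz/nitrotyrosine-quenched decapeptide. Fluorescence (ex 320, em 430) was read at 0 and 20 min at room temperature. Delta was normalized to 5.8 microM ADEP and DMSO/no-enzyme controls.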
gsp antag: antagonizes gsp, the McCune-Albright syndrome mutation | gsp-mutant cells, cAMP HTRF, 30 min; control for the full effect not named in the record | Potency, µM (highest dose often 76.9 µM), without a hit: at the highest dose activity change, negative = inhibition, usual class: inhibitors | 0.4% of 340,000 active; active = falling curve of any shape with a large fitted effect; inconclusive = falling curve, mostly with a smaller effect; inactive = flat or rising curve; cell line not stated here;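 further: intracellular cAMP measured with PDE inhibitor Ro 20-1724 present during compound exposure; potency means the concentration at half of the fitted maximal effect; on the % scale 0 is the no-effect control and ±100 the full control effect; nearly all actives have a fitted effect of over 65% in size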
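Cells, 2000/well, grown 16–24 h in DMEM 10% FBS with 0.5 mg/ml G418, then compounds plus […] (300 uM addition stock), 30 min at 37C. cAMP read by HTRF (cAMP-d2 and anti-cAMP antibody-K in lysis buffer) after 30 min RT.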
gsp ag: activates gsp, the McCune-Albright syndrome mutation; gsp mutant cells, cAMP HTRF, 30 min; control for the full effect not named in the record; Potency, µM (doses to about 76.9 µM), without a hit: at the highest dose activation (cAMP increase), actives largely listed as activators; 0.13% of 340,000 active; AID 624287; active = well fitted activation curve with a large enough effect; inconclusive = small, poorly fitted or top-dose-only effect, or another doubt; inactive = no such curve, though single readings can be large or run the other way; cell line not stated here;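 further: phosphodiesterase inhibitor Ro 20-1724 added with compounds to block cAMP breakdown; potency means the concentration at half of the fitted maximal effect; nearly all actives have a fitted effect of over 60% in size; about a fifth of the inactives were tested at one dose only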
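Cells in DMEM/10% FBS with G418 were pretreated with compounds in DMSO plus […] (300 uM stock) for 30 min at 37C. cAMP was measured by HTRF (cAMP-d2 plus anti-cAMP antibody-K) after 30 min at room temperature.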
CtBP-E1A inh: inhibitors of CtBP/E1A interaction. AlphaScreen GST-E1A/His-CtBP binding, 1536-well; active compounds read low; control for the full effect not named in the record. activity change, % (no concentration beside the values). 0.49% of 340,000 active. AID 651724; in the data active means activity change below about -65%; inconclusive means about -30% to -65%; inactive means above about -30%; further: on the % scale 0 is the no-effect control and ±100 the full control effect
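Homogeneous bead-based format: GST-tagged E1A captured on glutathione donor beads, His-tagged CtBP on nickel acceptor beads; compounds precede bead addition by 2 h at 37 °C.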
Sfp inh: inhibitors of Bacillus subtilis Sfp phosphopantetheinyl transferase; Q9F4F7; Biochemical Sfp PPTase activity, qHTS; Potency, µM, for the others: max response, negative = inhibition, most hits filed as inhibitors; 3.5% of 310,000 active; AID 1490; active means well fitted inhibition curve with a large enough effect; inconclusive means small, poorly fitted or top-dose-only effect, or another doubt; inactive means no such curve, though single readings can be large or run the other way;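 further: the enzyme is Sfp with the accession as filed and its product quenches rhodamine fluorescence; potency means the concentration at half of the fitted maximal effect; 0% = enzyme reaction without inhibitor and -100% = no enzyme wells; top concentration of the series not given in the record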
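Sfp 15 nM + cpd, 15 min RT; start w/ rhodamine-CoA 5 uM, BHQ-2-YbbR 12.5 uM (final); 50 mM Hepes pH 7.6, 10 mM MgCl2, 0.01% NP-40, 0.01% BSA; read 525/598 nm at 0 and 30 min.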
TRPV1 potentiator: human TRPV1 potentiation; Q8NER1; TRPV1-expressing cells, Fluo-8 calcium influx, capsaicin EC20 potentiation; host cell line not named in the record; control for the full effect not named in the record; potentiation, % at 8.33 µM; 0.02% of 320,000 active; AID 540277; active means potentiation above 80%; inconclusive means 30% to 80%; inactive means below 30%; further: 0% is about no effect
Target sequence (Q8NER1 whole entry, looked up): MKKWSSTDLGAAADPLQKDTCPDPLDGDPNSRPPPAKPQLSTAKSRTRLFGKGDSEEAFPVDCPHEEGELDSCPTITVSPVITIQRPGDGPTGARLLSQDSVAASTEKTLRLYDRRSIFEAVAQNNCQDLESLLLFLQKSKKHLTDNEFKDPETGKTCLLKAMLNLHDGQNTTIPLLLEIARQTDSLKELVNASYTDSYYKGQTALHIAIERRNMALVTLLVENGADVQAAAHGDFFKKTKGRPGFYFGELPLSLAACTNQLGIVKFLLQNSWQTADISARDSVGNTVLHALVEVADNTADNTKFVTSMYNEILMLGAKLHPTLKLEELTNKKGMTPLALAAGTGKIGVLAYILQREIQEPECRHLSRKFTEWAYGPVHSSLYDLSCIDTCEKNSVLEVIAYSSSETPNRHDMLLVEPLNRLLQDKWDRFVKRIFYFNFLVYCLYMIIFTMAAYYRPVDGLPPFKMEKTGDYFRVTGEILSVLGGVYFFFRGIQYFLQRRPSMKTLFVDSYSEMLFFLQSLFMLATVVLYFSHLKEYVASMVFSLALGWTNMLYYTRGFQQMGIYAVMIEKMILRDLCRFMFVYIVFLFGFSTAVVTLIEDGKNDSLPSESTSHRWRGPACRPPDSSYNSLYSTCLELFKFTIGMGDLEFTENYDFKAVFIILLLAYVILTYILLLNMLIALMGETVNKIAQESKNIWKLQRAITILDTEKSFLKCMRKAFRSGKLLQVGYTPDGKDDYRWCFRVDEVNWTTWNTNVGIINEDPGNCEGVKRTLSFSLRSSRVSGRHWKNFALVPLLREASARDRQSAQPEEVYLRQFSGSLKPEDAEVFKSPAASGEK
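Fluo-8 calcium influx in TRPV1-expressing cells, kinetic read (ex 480/em 520 nm). Compound added and read 3 min for agonist activity, followed by capsaicin at EC20 final and 2 min further read for enhancement.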
Menin-MLL FL inh: inhibitors of human menin-MLL interaction, wild-type MLL peptide | AID 1766 | FP activity change, % at 61.4 µM | 290,000 tested, under 10 active | Fluorescence polarization, fluorescein-MLL peptide displacement from menin; inconclusive = falling polarisation curve, or a change in total fluorescence; inactive = total fluorescence flat and polarisation flat or rising; no compound was filed as active; the % refers to the polarisation; negative = inhibition;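 further: % of control where 0% means no effect; inhibitors lower the polarisation; unlabelled MLL peptide was the positive control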
Active calls of the source: *; ? = inconclusive; · = not tested or not shown; [ ] = dose if it differs, or a comment.

SMILES	ClpP mod	gsp antag	gsp ag	CtBP-E1A inh	Sfp inh	TRPV1 potentiator	Menin-MLL FL inh
c1ccc(C2CNCc3c2ccc2ccccc32)cc1 (stereo not given)	0.7%	17%	6%	4	-10%	29	1.3
O=C(NNC(=S)NC(=O)c1ccccc1[N+](=O)[O-])c1ccccc1	0.3%	5%	-14%	-1	16%	18	4.4
C1=C(c2ccccc2)N2CCN=C2S1	-5.3%	14%	-36%[inhibitor]	1	14%	-14	-0.2
Cc1ccc(NC(=O)CSc2nnc(Cc3ccccc3)c(=O)[nH]2)c(C)c1	·	-12%	-7%[15.4 µM]	0	·	2	·
Cn1ccnc1Sc1cc(NCCCO)c([N+](=O)[O-])c2nonc12	-6.2%	-15%	10%[15.4 µM]	-10	?	-5	-3.7
Cc1c2cnn(CC(=O)NCCN3CCOCC3)c(=O)c2c(C)n1Cc1ccccc1F	-3.6%	12%	14%	-26	·	·	·
Cc1ccccc1N=C1NC(=O)/C(=C/c2cccnc2)S1	-1.0%	2%	10%	·	3%	-4	-1.3
COc1ccc(OC)c(C(=O)c2ccc(C(=O)Nc3cccc4ccccc34)cc2)c1	-5.4%	4%	24%	4	16%	14	5.6
CCOC(=O)c1nnn2c1nc(SCC(C)=O)c1ccccc12	0.6%	18%	26%[15.4 µM]	1	5%	0	-3.0
COc1ccccc1-n1cnnc1SC(C)C(=O)Nc1cccc([N+](=O)[O-])c1 (stereo not given)	-1.4%	-10%	-34%[inhibitor]	0	3%	10	2.5
Cc1ccc2c(c1)C(c1ccccc1)CC(=O)O2 (stereo not given)	1.1%	1%	17%[15.4 µM]	-2	5%	-17	0.2
O=C(CN(C(=O)c1csnn1)c1cccc2ccccc12)NCc1ccccc1	·	·	4%[15.4 µM]	26	6%	5	-3.9
O=c1oc2ccccc2n1Cn1c(=O)oc2ccccc21	-3.8%	4%	18%	8	10%	9	0.7
O=C(/C=C/c1ccc2ccccc2n1)N1CCN(S(=O)(=O)c2ccc(F)cc2)CC1	-3.7%	-31%	-3%	1	-11%	1	8.5
Cc1ccc(C)c(Cn2c(=O)n(CCCC(=O)NCc3ccco3)c(=O)c3ccccc32)c1	0.0%	9%	-1%[15.4 µM]	2	2%	-8	3.2
Cc1ccccc1C(O)c1ccncc1 (stereo not given)	-0.2%	-2%	29%	-2	16%	-4	0.8
COc1ccc(-c2cc(C)no2)cc1S(=O)(=O)N1CCCN(Cc2ccccc2Cl)C1	0.0%	-16%	15%	-16	-4%	-11	3.1
CC(C)(C)OC(=O)NNc1c2ccccc2nc2ccccc12	1.1%	-23%	-1%[15.4 µM]	7	4%	?	-6.9
Cc1ccc(S(=O)(=O)N2CCN(C(=O)c3ccnn3C)CC2)cc1C	-0.8%	-2%	-15%	-2	1%	-5	·
CSC1=NS(=O)(=O)c2c(C)nn(C)c2S1	·	-28%	?	9	6.3µM*	14	-1.8
O=C(c1ccccc1)N1CCN(c2ccc(NCc3ccc4c(c3)OCO4)cc2)CC1	0.9%	-29%	-44%[inhibitor]	?	-24%	22	-1.2
COc1ccccc1N1CCN(C2CCCN(Cc3ccccc3OCCO)C2)CC1 (stereo not given)	·	11%	-27%	0	9%	2	0.4
O=S(=O)(NC(=S)Nc1ccccc1)c1ccc(F)cc1	-0.1%	3%	?	8	20µM*	4	0.2
CC(C)NC(=O)NC(=O)CSc1nnc(COc2ccccc2F)n1C(C)C1CC2CCC1C2 (stereo not given)	0.0%	-28%	?	8	-14%	0	3.0
C[C@H]1CCC[C@]2(O[C@@H](CCO)C[C@@H](O)[C@@H]2O)O1	0.1%	10%	-30%	0	·	·	·
COc1ccc(N2CCN(C(=S)Nc3ccc(C)cc3C)CC2)cc1	-2.1%	11%	-17%	-19	12%	-19	2.4
O=C(N/N=C/c1ccccc1C(=O)O)c1cccc(S(=O)(=O)Nc2cc(Cl)ccc2Cl)c1	·	-12%	-10%[15.4 µM]	?	10%	-5	-0.2
CC1CCC2(CC1)SCC(=O)N2c1ccccc1 (stereo not given)	-1.2%	3%	-24%	1	8%	5	1.1
CCN(c1ccccc1)S(=O)(=O)c1ccc(Cl)c(NC(=O)COC(=O)c2ccc(O)cc2)c1	-5.8%	?	14%	3	16%	26	6.6
CCOc1cc(CNCC2CCCO2)cc(Br)c1OCC(N)=O (stereo not given)	3.9%	7%	-50%	-7	2%	12	1.3
COc1ccccc1NC(=S)N(Cc1ccco1)Cc1cc2cccc(C)c2[nH]c1=O	-8.2%	-3%	-6%	-13	1%	1	3.1
Cc1ccccc1-c1nnc(SCc2ccc(F)cc2)o1	-1.6%	9%	-11%	60	-4%	3	-3.8
c1ccc(CSc2ccc(-c3cccnc3)nn2)nc1	0.5%	-11%	21%[15.4 µM]	5	16%	-13	-8.0
CC(=O)Nc1cccc(NC(=O)c2ccc(S(=O)(=O)NCc3ccco3)cc2)c1	-0.4%	·	-39%[inhibitor]	0	·	·	·
Cc1ccc(C(=O)Nc2onc(C)c2C#N)cc1	4.8%	-16%	-26%	-1	13%	-8	0.5
COC(=O)c1c(-c2ccsc2)sc2ccc(-c3cc(OC)c(OC)c(OC)c3)cc12	-6.0%	-1%	·	-2	·	·	·
C=C[C@](C)(CC[C@@]1(C)C(C)CC(OC2OC(C)C(OC3OC(COC(C)=O)C(O)C(O)C3O)C(O)C2O)[C@@]2(C)C(C)=CCCC12)OC1OC(C)C(O[C@@H]2O[C@@H](C)C(O)C(O)[C@H]2O)C(O)C1O (stereo not given in full)	1.5%	9%	·	-14	·	·	·
CCOc1ccc(Cn2ccnc2CCl)cc1[N+](=O)[O-]	-3.1%	-3%	2%	-3	-15%	-7	3.1
CC1CC(C)(C)NC(=S)N1CC(=O)NCc1ccc2c(c1)OCO2 (stereo not given)	·	2%	42%	6	-3%	?	3.3
COc1ccc(CCNC(=O)CC(=O)N/N=C/c2ccc(C(=O)O)cc2)cc1OC	14µM*	0%	3%[15.4 µM]	-1	12%	2	-3.5
Cc1cc(NS(=O)(=O)c2ccc(NC(=O)CSc3nc4ncc(Br)cc4[nH]3)cc2)nc(C)n1	-1.4%	9%	23%	-23	19%	17	0.8
COc1cc(OC)cc(C(=O)NCC(=O)Nc2ccc(OC)c(Cl)c2)c1	·	3%	-1%	7	5%	-31	-4.5
Cc1nnsc1C(=O)N1CCCC(N2CCN(c3cccc(C(F)(F)F)c3)CC2)C1 (stereo not given)	-25%	-7%	-34%[inhibitor]	1	10%	6	·
C=C(C)COc1ccc(-c2nc(N)ncc2-c2ccc(Br)cc2)c(O)c1	-1.0%	-17%	-14%	4	15%	1	3.0
COc1ccc(N(CC(=O)NN=C2CCCCCCC2)S(=O)(=O)c2ccccc2)cc1	-0.6%	-7%	-37%[inhibitor]	2	-4%	4	1.4
O=C1NC(c2ccccc2)C(C(=O)c2cccs2)=C1O (stereo not given)	-2.7%	9%	23%	-10	2%	0	4.3
Cc1cc(C)c2[nH]c(=O)c(CN(C(=O)C3CCCO3)C3CCCC3)cc2c1 (stereo not given)	·	·	·	·	2%	-1	1.2
Cc1oc2c(C)c3oc(=O)c(CCC(=O)NCCCn4ccnc4)c(C)c3cc2c1C	-12%	-18%	·	-22	8%	-17	1.3

Screens: PubChem BioAssay, National Center for Advancing Translational Sciences (NCATS)

Not a hit list; any-hit rate near 5.3%.
